HPGD inh – qHTS Assay for Inhibitors of HPGD (15-Hydroxyprostaglandin Dehydrogenase); 4.3% of 150,000 active; purified HPGD, NADH fluorescence kinetic, PGE2 substrate; 15-hydroxyprostaglandin dehydrogenase [NAD(+)] (Homo sapiens), P15428; Potency, µM, for the others: top-dose activity change, negative = inhibition, actives largely listed as inhibitors; active = well fitted inhibition curve with a large enough effect (not every such curve was filed as active); inconclusive = small, poorly fitted or top-dose-only effect, or another doubt; inactive = no such curve, though single readings can be large or run the other way;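 note: top concentration of the series not given in the record; plate controls included wells without enzyme; inactives centre near -10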
Target sequence (P15428 whole entry, looked up): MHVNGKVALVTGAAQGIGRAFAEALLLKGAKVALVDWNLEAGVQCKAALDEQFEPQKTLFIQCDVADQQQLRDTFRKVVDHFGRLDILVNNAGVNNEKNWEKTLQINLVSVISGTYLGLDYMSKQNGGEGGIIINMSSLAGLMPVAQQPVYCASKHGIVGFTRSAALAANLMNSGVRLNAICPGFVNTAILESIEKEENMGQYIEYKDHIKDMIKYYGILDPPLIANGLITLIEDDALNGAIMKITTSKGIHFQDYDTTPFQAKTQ
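NADH formation kinetics: reaction with 30 uM PGE2 and 1 mM NAD+ (final), 20 nM enzyme, Tris-HCl pH 8 with Tween 20, after 15 min compound preincubation at room temperature. Fluorescence change, last versus first of five reads.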
Numbers without * were called inactive; ? = inconclusive; & = joins results of further samples. % is set by controls: 0 for no effect and ±100 for the full control effect; potency is the fitted concentration of half-maximal effect.

nr	compound	HPGD inh
1	Cc1cccc(-n2c(SCc3ccc(C#N)cc3)nnc2-c2c[nH]c3ccccc23)c1	-2%
2	c1ccc(-c2nc(-c3ccccn3)no2)cc1	-4%
3	Cn1c2ccccc2c2c(C(=O)N3CCN(C(=O)c4ccco4)CC3)cn(C3CCCCC3)c(=O)c21	?
4	CCCCC1OC2(C)OC(=N)C1(C#N)C(C#N)(C#N)C2c1ccccc1 (stereo not drawn)	?
5	Cc1cccc(N2CCN(C(=O)c3cc4ccccc4oc3=O)CC2)c1C	-2%
6	COc1ccc(CCNC(=O)Cn2c(-c3nonc3N)nc3ccccc32)cc1OC	-16%
7	O=C(Nc1cccc2ncccc12)c1ccc(-c2ccc(Br)cc2)o1	?
8	COc1cc(C2=NOC(C(=O)N3CCOCC3)C2)cc(OC)c1OC (stereo not drawn)	-15%
9	CC1OC(OCC2OC(Oc3c(-c4ccc(OCCO)c(OCCO)c4)oc4cc(OCCO)cc(O)c4c3=O)C(O)C(O)C2O)[C@@H](O)C(O)C1O (stereo partly drawn)	-12%
10	CC(=O)NC(=O)c1ccc(-c2ccc(Cl)cc2)o1	?
11	CC(Sc1nc(-c2ccccc2)cc(C(F)(F)F)n1)C(=O)NCCN1CCOCC1 (stereo not drawn)	-4%
12	CCOc1ccc(-c2cc(CCCC(=O)Nc3cccc(OC)c3)no2)cc1	-11%

5 compounds from above, arranged by their value in HPGD inh, lowest first.
nr	compound	HPGD inh
6	COc1ccc(CCNC(=O)Cn2c(-c3nonc3N)nc3ccccc32)cc1OC	-16%
9	CC1OC(OCC2OC(Oc3c(-c4ccc(OCCO)c(OCCO)c4)oc4cc(OCCO)cc(O)c4c3=O)C(O)C(O)C2O)[C@@H](O)C(O)C1O (stereo partly drawn)	-12%
12	CCOc1ccc(-c2cc(CCCC(=O)Nc3cccc(OC)c3)no2)cc1	-11%
11	CC(Sc1nc(-c2ccccc2)cc(C(F)(F)F)n1)C(=O)NCCN1CCOCC1 (stereo not drawn)	-4%
1	Cc1cccc(-n2c(SCc3ccc(C#N)cc3)nnc2-c2c[nH]c3ccccc23)c1	-2%

Of the compounds above, these contain a furan ring, fused or not.
nr	compound	HPGD inh
3	Cn1c2ccccc2c2c(C(=O)N3CCN(C(=O)c4ccco4)CC3)cn(C3CCCCC3)c(=O)c21	?
7	O=C(Nc1cccc2ncccc12)c1ccc(-c2ccc(Br)cc2)o1	?
10	CC(=O)NC(=O)c1ccc(-c2ccc(Cl)cc2)o1	?

Carrying on:
nr	compound	HPGD inh
13	Cc1cccc(/C=N/NC(=O)c2ccc(Br)cc2)c1	-1%
14	COc1ccc(-n2[nH]c(C)cc2=O)cc1	-1%
15	Cc1ccc2c(c1)NC(=O)C(CC(=O)NCCCN1CCN(C3CCCCC3)CC1)O2 (stereo not drawn)	-8%
16	O=C(NC1CCCCC1)c1cc([N+](=O)[O-])ccc1N1CCCCC1	-7%
17	CCOC(=O)c1cc(-c2ccc3c(c2)OCCO3)nc2c1c(C)nn2CCC#N	?
18	O=C(c1cc(-c2cccs2)nc2ccccc12)N1CCN(S(=O)(=O)c2ccccc2)CC1	?
19	O=c1c2ccccc2nc2c3ccccc3c3nncn3n12	-25%
20	CCCCC(CC)CN (stereo not drawn)	0%&-10%
21	C/C=C(\C)C(=O)OC1[C@@H]2C=C3C4CC(=O)OC(c5ccoc5)[C@]4(C)CCC3[C@@](C)(C2=O)C(C(O)C(=O)OC)C1(C)C (stereo partly drawn)	2%
22	CC1CCCCN1CCNC(=O)c1cc2c(=O)n(C)c3ccccc3c2n1C (stereo not drawn)	-26%
23	O=C(C1CC1)N1CCc2cc(S(=O)(=O)NCCC3=CCCCC3)ccc21	-22%
24	O=C(Nc1ccccc1)OCc1ccccn1	-6%

nr	compound	HPGD inh
25	CC(C)OC(=O)CN1C(=O)C(C)(C)Oc2ccc(C(=O)NC(C)(C)C)cc21	-13%
26	C#CCOC(=O)c1ccccc1C(=O)n1nnc2ccccc21	-4%
27	CC1Cc2cc(C(=O)O)ccc2O1 (stereo not drawn)	-11%
28	Nc1ncnc2c1ncn2CCOc1ccccc1	-7%
29	Cc1ccc(-c2onc3ccc(C=O)cc23)cc1	?
30	O=C(CSc1nc(-c2ccco2)cc(C(F)(F)F)n1)NCC1CCCO1 (stereo not drawn)	?
31	O=C(CSc1nnnn1-c1ccc2c(c1)CCC2)NCc1cccs1	-10%
32	COCCn1c(SCC(=O)Nc2nnc(C)s2)nnc1-c1ccncc1	-7%
33	CCOC(=O)N1CCN(C(c2cccnc2)c2ccc3cccnc3c2O)CC1 (stereo not drawn)	2%
34	CCCc1nc2oc3c(OCC)ncnc3c2c2c1COC(C)(C)C2	-9%
35	CC1Cc2ccccc2N1C(=O)COC(=O)Cn1nnc(-c2ccccc2)n1 (stereo not drawn)	-24%
36	c1nc(N2CCNCC2)c2cc(-c3ccc4c(c3)OCO4)ccc2n1	-20%

nr	compound	HPGD inh
37	C=CCOc1c2ccc(C(=O)NC3CCCc4ccccc43)cc2nn1C (stereo not drawn)	?
38	O=C(COc1ccccc1Br)NCc1ccccn1	?
39	NCCC[C@@H](CC(=O)N[C@@H]1CCNC[C@H]1C(=O)N[C@H](CC(=O)N[C@@H](CCC(=O)O)CC(=O)O)Cc1ccccc1)NC(=O)C[C@H](Cc1c[nH]c2ccccc12)NC(=O)[C@@H]1CNCC[C@H]1N	-5%
40	Cc1cc([N+](=O)[O-])nn1Cc1ccccc1F	-9%
41	c1ccc(OCCCn2nnc(-c3cccnc3)n2)cc1	-4%
42	CCC(=O)NC(=S)Nc1ccccc1OC	-2%
43	c1coc(Cn2c(SCc3nc4ccccc4[nH]3)nnc2-c2cccs2)c1	-28%
44	COc1ccc(C(C)=O)cc1CN1C(=O)C(C)N(c2ccc(C)cc2)C1=O (stereo not drawn)	-24%
45	CC(=O)C1=C(O)C(=O)N(CCN2CCOCC2)C1c1ccccc1 (stereo not drawn)	-15%
46	O=C1OC(c2ccccc2)=C/C1=C\N1CCOCC1	-6%
47	COc1ccc(CC(C)N2CCN(c3ccccc3)CC2)cc1OC (stereo not drawn)	-11%
48	O=C(Nc1nc(-c2ccc(Cl)cc2)cs1)c1cccnc1	-15%

Overlap with the part before: 3 entries, followed by the next part.
nr	compound	HPGD inh
46	O=C1OC(c2ccccc2)=C/C1=C\N1CCOCC1	-6%
47	COc1ccc(CC(C)N2CCN(c3ccccc3)CC2)cc1OC (stereo not drawn)	-11%
48	O=C(Nc1nc(-c2ccc(Cl)cc2)cs1)c1cccnc1	-15%
49	CO[C@H]1[C@H](O[C@H]2O[C@@H](C)[C@@H](O[C@@H]3C[C@](C)(O)[C@H](O)[C@H](C)O3)[C@@H](N(C)C)[C@@H]2O)[C@@H](CC=O)C[C@@H](C)[C@@H](O[C@H]2CC[C@H](N(C)C)[C@H](C)O2)/C=C\C=C/C[C@@H](C)OC(=O)C[C@H]1O	-3%
50	CCOc1cccc(C(=O)NC(=S)Nc2cccc(NC(=O)c3ccccc3Cl)c2)c1	-27%
51	C=CCn1c(SCC(=O)Nc2nccs2)nnc1-c1cc2cccc(OC)c2o1	?
52	CCn1c2ccccc2c2nnc(SCC(=O)NC3CCS(=O)(=O)C3)nc21 (stereo not drawn)	32µM*
53	COC(=O)c1ccc(C)c(NC(=O)c2nn(C)c(=O)c3ccccc23)c1	-9%
54	C/C(=N\NC(=O)Cn1nc(C)c([N+](=O)[O-])c1C)c1ccc(O)cc1	-1%
55	Cc1ccc(Nc2nc(-c3c(C)nc4ccccn34)cs2)cc1	?
56	CC(=O)Nc1ccc(NC(=O)C/C(C)=N/NC(=O)C(=O)N2CCCC2)cc1	2%
57	Clc1ccc2c(NC3CCC(N4CCCCC4)CC3)ccnc2c1 (stereo not drawn)	-10%
58	O=C(CCS(=O)(=O)c1cccc2nsnc12)N1CCN(c2ccccc2F)CC1	-14%
59	COc1ccc(NC(=O)c2ccccc2[N+](=O)[O-])cc1OC	-7%
60	N#C/C(=C\c1ccc(O)c(O)c1)C(=O)NCCc1ccccc1	25µM*

nr	compound	HPGD inh
61	COc1ccc(Oc2c(C)oc3c(CN(C)C)c(O)ccc3c2=O)cc1	?
62	CCc1ccc2c(c1)C(NC(C)=O)C(=O)N2CC (stereo not drawn)	-12%
63	CC(Oc1ccc(Cl)cc1)c1ccnn1S(C)(=O)=O (stereo not drawn)	-12%
64	CCC(Nc1ccc(OC)cc1)C(=O)N/N=C/c1ccc([N+](=O)[O-])cc1 (stereo not drawn)	-9%
65	O=C(NCC1CCCO1)C1c2ccccc2C(=O)N1C1CCCCCCC1 (stereo not drawn)	-3%
66	CCS(=O)(=O)n1nc(-c2ccco2)nc1SC	8.9µM*
67	Cc1ccc(S(=O)(=O)C(F)(F)F)cc1NC(=O)c1cccnc1	-10%
68	CCOc1cc(S(=O)(=O)N2CCCCC2)ccc1Cl	-13%
69	Fc1ccc(Cn2c(SCc3ccc(F)c(F)c3)nnc2C(F)(F)F)cc1	-4%
70	O=C(Cc1cc(=O)[nH]c(=O)[nH]1)N1CCN(C(=O)c2ccco2)CC1	-8%
71	OC(CNC1CCCCC1)COCCOc1ccc(Br)cc1 (stereo not drawn)	0%
72	COc1ccc(C(C)(C)C)cc1S(=O)(=O)N1CCC(C(N)=O)CC1	-9%
73	COc1ccc(-c2csc(N3C(=O)CNC3=S)n2)cc1	-26%
74	O=C(O)CSc1cccc[n+]1[O-]	4%
75	Cc1ccc(N(C(=O)c2ccccc2Cl)C2=NC(C)CS2)c(C)c1 (stereo not drawn)	-17%

HPGD inh, hit marks shown above.
nr	compound	HPGD inh
52	CCn1c2ccccc2c2nnc(SCC(=O)NC3CCS(=O)(=O)C3)nc21 (stereo not drawn)	32µM*
60	N#C/C(=C\c1ccc(O)c(O)c1)C(=O)NCCc1ccccc1	25µM*
66	CCS(=O)(=O)n1nc(-c2ccco2)nc1SC	8.9µM*

More results.
nr	compound	HPGD inh
76	O=c1cc(CNc2cc(Cl)ccc2Cl)nc2sccn12	-27%
77	Cc1cc(NC(=O)CSc2nc(CCC3CCCC3)nc3ccccc23)no1	-11%
78	C=CCC(c1ccccc1F)N(CCN1CCOCC1)C(=O)Nc1cccc(Cl)c1 (stereo not drawn)	-8%
79	CC(=O)c1cccc(N(CC(=O)N2CCOCC2)S(C)(=O)=O)c1	-19%
80	COc1cccc(N2CCN(C(=O)CN(C)S(=O)(=O)c3ccc4c(c3)CCC(=O)N4)CC2)c1	-13%
81	CCOC(=O)c1cc(Br)c(=O)n2ccccc12	-21%
82	O=C(N/N=C/c1ccccc1)c1c(O)c2ccccc2[nH]c1=O	-7%
83	Cc1ccc2nc(CSc3nc(C)cc(C)c3C#N)[nH]c2c1	?
84	NN(CC(=O)O)CC(=O)O	-1%
85	O=C(N1CCOCC1)C12CC3CC(C1)CC(c1ccccc1)(C3)C2	1%
86	Clc1ccc(-c2nnc3sc(-c4ccco4)nn23)c(Cl)c1	-4%
87	CC(C)CCN(C)C1CCN(S(=O)(=O)c2ccc(F)cc2)CC1	-2%
88	CN(C)Cc1ccccc1Sc1ccccc1Br	0%
89	Cn1c(C(=O)NCc2ccc3c(c2)OCO3)cc2sccc21	-21%
90	CCOC(=O)C1=C(C)N2C(=C(C#N)[C@@H]1c1ccc(C(=O)OC)cc1)SC[C@@]2(O)C(C)(C)C	-22%

nr	compound	HPGD inh
91	COC(=O)C1C2C=CC3(CN(C4CCCC4)C(=O)C13)O2 (stereo not drawn)	-2%
92	CC1(C)CC(NS(=O)(=O)c2ccccc2)CC(C)(C)N1	-10%
93	CC12CC3CC(C)(C1)CC(C(=O)NC1=NCCS1)(C3)C2	3%
94	COc1cc(C2CC(=O)Oc3cc(C)cc(C)c32)cc(OC)c1OC (stereo not drawn)	-13%
95	CC1=CC(C)C(C(=O)O)C(C(=O)O)C1 (stereo not drawn)	-9%
96	COc1ccccc1CNC(=O)C1CCCN(S(=O)(=O)c2cnc[nH]2)C1 (stereo not drawn)	-10%
97	Cc1cccc(NC(=O)NCc2ccc3c(c2)cc(C)n3C)c1	-17%
98	COc1cccc(OCCNC(=O)c2ccccc2Sc2ccccc2C#N)c1	-14%
99	CCOC(=O)C1CCCN(C(=O)c2ccc3c(c2)OCO3)C1 (stereo not drawn)	10µM*
100	CC1CC(C)CN(CCOc2ccccc2-c2ccccc2)C1 (stereo not drawn)	-8%
101	Cc1cc(C)n(C(=O)CNC(=O)C(c2ccccc2)c2ccccc2)n1	-1%
102	O=C(O)C1CCCCC1C(=O)NCCc1cccc(Cl)c1 (stereo not drawn)	-13%
103	O=C(NCCCN1CCCC1=O)c1ccc(CNS(=O)(=O)c2ccc(F)cc2)cc1	-7%
104	Cc1cc(C)nc(SCC(=O)Nc2ccc(N3CCOCC3)c(Cl)c2)n1	-7%
105	COC(=O)c1ccc2c(=O)n(NC(=O)C(c3ccccc3)c3ccccc3)c(=S)[nH]c2c1	-11%

nr	compound	HPGD inh
106	CCOC(=O)N1CCC(c2cc(=O)n3[nH]c(-c4ccccc4)cc3n2)CC1	?
107	Cn1cccc1C(=O)N1CCC2(CC1)CCN(c1ccccn1)CC2	-30%
108	Cc1cc(C)n2ncnc2n1	-3%
109	Cc1cc(C)n(-c2ccc(C(=O)Nc3nc4ccccc4s3)cc2)n1	?
110	c1cc(OCC2CO2)cc(OCC2CO2)c1 (stereo not drawn)	-13%
111	Nn1c(SCC(=O)N2CCOCC2)nnc1-c1ccccc1Cl	-14%
112	Cc1ccc2ncnc(NCCCN3CCOCC3)c2c1	-8%
113	NNC(=O)/C(=N/Nc1ccccc1)S(=O)(=O)c1ccc(Cl)cc1	-18%
114	COC(=O)CSc1nc2ccccc2nc1SCC(=O)OC	?
115	CCN1CCN(C(=O)C2c3cc(OC)c(OC)cc3C(=O)N3CCc4ccccc4C23)CC1 (stereo not drawn)	-4%
116	Cc1cccc(OCC(=O)NCC(=O)N/N=C/c2cc(Br)ccc2OCc2ccccc2)c1	-14%
117	Cc1cc(-c2csc(N)n2)c(C)n1CCC(C)C	-9%

The list is partial; count on the stated rates, not on these rows.
